T cruzi repl: inhibitors of intracellular T. cruzi growth, primary screen, luminescence, NIH3T3 host cells; inhibition, % (test concentration not listed); T. cruzi beta-gal in NIH3T3, 90 h; AID 1885, 2009; actives 1.4% (n = 300,000);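 active = mean inhibition across valid replicates above about 55%, limit read from the data; inconclusive = mean below that limit but half or more replicates reach it; inactive = mean below it, under half of replicates reach it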;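 also: signal also drops with host cell toxicity which is not excluded here; 0% = plate median of DMSO wells and 100% = zero luminescence signal; higher percent means less beta-gal luminescence so fewer parasites; stock transfer was 50 nL into about 50 µL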
FGF22 binding: binders of human FGF22 protein, primary screen, FGF22 synaptogenesis inhibitor project, biophysical, thermal shift, single point; calls only at 9.99 µM; recombinant FGF22 thermal shift, SYPRO orange fluorescence; percent of sucrose octasulfate shift, DMSO zero; AID 651658, 2012; actives 1.5% (n = 340,000); Fibroblast growth factor 22 (Homo sapiens), Q9HCT0;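 active = melting point raised past a set limit in the mean and every replicate; inconclusive = no clear call; three in four hits are not shown here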
Target sequence (Q9HCT0 whole entry, looked up): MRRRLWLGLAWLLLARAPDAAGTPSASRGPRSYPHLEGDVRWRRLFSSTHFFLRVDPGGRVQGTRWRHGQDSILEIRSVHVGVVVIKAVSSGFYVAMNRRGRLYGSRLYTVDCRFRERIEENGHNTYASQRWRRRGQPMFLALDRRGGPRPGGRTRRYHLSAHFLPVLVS
ALR inh: inhibitors of human ALR sulfhydryl oxidase, primary screen, biochemical, H2O2 detection, HRP-luminol luminescence, single point; FAD-linked sulfhydryl oxidase ALR (Homo sapiens), P55789; purified ALR, DTT oxidation; inhibition, % (no concentration beside the values); actives 3.8% (n = 290,000);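 active = mean and each replicate at 75% or more; inconclusive = only one of the two met; inactive = neither met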;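 also: stock transfer was 7.5 nL into about 7.5 µL; 0% = neutral wells and 100% = wells with inactivated enzyme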
Target sequence (P55789 whole entry, looked up): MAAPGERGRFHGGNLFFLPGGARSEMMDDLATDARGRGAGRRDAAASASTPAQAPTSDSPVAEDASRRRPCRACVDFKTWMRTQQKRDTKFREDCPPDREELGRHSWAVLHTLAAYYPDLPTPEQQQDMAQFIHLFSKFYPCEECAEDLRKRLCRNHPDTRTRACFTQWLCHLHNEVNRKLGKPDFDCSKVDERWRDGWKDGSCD
Beta cell apopt: inhibitors of cytokine-induced beta cell apoptosis, primary screen, luminescence; protection from apoptosis, % (concentration not given with the values); INS-1E cytokine-induced death, ATP luminescence, 48 h; percent of positive-control rescue, neutral wells zero; actives 0.8% (n = 300,000);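 active = all replicates at 75% or more, or half of them and the mean; inconclusive = half reach 75% but not the mean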;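 also: 0% = cytokine-treated negative control wells and 100% = positive control rescue; higher means more ATP so stronger rescue from cytokine killing; wells of about 40 µL received 100 nL stock; the first replicate is given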
MLL AF4-AF9 inh: inhibitors of AF4 peptide binding to AF9, primary screen, biochemical, AlphaScreen, biotin-AF4 peptide, FLAG-AF9, single point. Protein AF-9 (Homo sapiens), P42568. actives 0.47% (n = 350,000). inhibition, % at 10 µM;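 active = every replicate reaching a set inhibition limit, whatever the replicate mean, cut at about 25% in these data; inconclusive = mean inhibition reaches that limit but some replicates miss it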;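 also: 0% = plate neutral control median and 100% = total signal loss; the record names both 10 and 1 µM as test concentration; the first replicate is given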
Target sequence (P42568 whole entry, looked up): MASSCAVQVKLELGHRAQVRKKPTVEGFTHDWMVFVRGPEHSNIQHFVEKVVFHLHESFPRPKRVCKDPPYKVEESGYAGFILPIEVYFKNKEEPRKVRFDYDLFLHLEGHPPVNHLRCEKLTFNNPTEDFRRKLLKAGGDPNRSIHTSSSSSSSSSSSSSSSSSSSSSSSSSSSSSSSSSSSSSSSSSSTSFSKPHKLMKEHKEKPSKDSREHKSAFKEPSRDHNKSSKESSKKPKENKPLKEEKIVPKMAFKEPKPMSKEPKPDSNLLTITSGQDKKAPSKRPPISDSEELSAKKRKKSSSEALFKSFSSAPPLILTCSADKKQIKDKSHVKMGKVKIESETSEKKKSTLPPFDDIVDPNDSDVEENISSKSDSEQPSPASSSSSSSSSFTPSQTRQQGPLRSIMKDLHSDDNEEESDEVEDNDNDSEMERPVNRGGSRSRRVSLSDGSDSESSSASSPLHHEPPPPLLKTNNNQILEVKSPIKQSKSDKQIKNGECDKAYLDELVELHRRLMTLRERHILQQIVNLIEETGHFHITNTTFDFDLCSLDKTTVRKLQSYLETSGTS
RanGTP-Imp inh: inhibitors of RanGTP-importin-beta interaction, primary screen, biochemical, FRET, CFP-Ran, YFP-importin-beta, homogeneous. Ran GTPase (GTP-bound) - importin-beta complex. cell-free CFP-Ran/YFP-importin-beta FRET ratio. inhibition, % (concentration not given with the values). actives 1.1% (n = 300,000);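 active = most replicates above 15%; inconclusive = exactly half above 15%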;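 also: 0% = DMSO wells and 100% = Ran loaded with GDP instead of GTP; wells of about 40 µL received 100 nL stock; the first replicate is given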
rRNA inh HTS: reduced GFP signal of wild-type E. coli, primary screen, bacterial rRNA inhibitor project, GFP/RFP fluorescence, OD600, single point. E. coli WT GFP vs humanized-ribosome RFP mutants, 24 h; hits give low values; DMSO median 0, no signal -100. GFP signal change (wild-type ribosome), % (test concentration not listed). actives 1.6% (n = 350,000). AID 720706, 2013;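 active = significant combined selectivity score with lowered wild-type GFP, culture density cut under 30%, mutant RFP and density less affected; inactive = any of these conditions unmet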; also: one replicate is shown; some compounds called inactive have numbers as strong as hits
Calb FLC: C. albicans growth inhibition with fluconazole, primary screen, CaCi-2 strain, Alamar Blue fluorescence. C. albicans CaCi-2 (fluconazole-resistant clinical isolate) + fluconazole, 48 h. growth inhibition, % (no concentration beside the values). actives 0.57% (n = 300,000). AID 1979, 2009;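 active = most replicates above 75%; inconclusive = exactly half above 75%; inactive = most below 75%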;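 also: all wells also contain fluconazole at 8 µg/ml as a sub-toxic cotreatment; 0% = median of DMSO wells and 100% = median of geldanamycin control wells; wells of about 8 µL received 7.5 nL stock; the first replicate is given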
rRNA inh HTS OD600: second read-out of rRNA inh HTS, no call of its own (marks repeat the call); OD600 change, %; measured here: OD600 growth;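 optical density of the mix in the first replicate; 0 = DMSO median and -100 = no signal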
rRNA inh HTS RFP: further read-out of rRNA inh HTS, marked with its call; RFP signal change, %; measured here: RFP humanized mutant strains;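 first replicate; 0 = DMSO median and -100 = no signal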
An asterisk follows results filed as active.

For O=C(CSc1nnc(-c2ccccc2F)n1C1CC1)Nc1ccc2[nH]c(=O)[nH]c2c1 the results were T cruzi repl -8, FGF22 binding inactive, ALR inh -10, Beta cell apopt 3, MLL AF4-AF9 inh -23, RanGTP-Imp inh 2.8, rRNA inh HTS -2, Calb FLC 0, rRNA inh HTS OD600 -2 and rRNA inh HTS RFP -7.6.
Screening CC(C)NC(=O)COc1coc(CN2CCN(c3cccc(Cl)c3)CC2)cc1=O returned T cruzi repl -9, FGF22 binding inactive, ALR inh 7, MLL AF4-AF9 inh -0.9, RanGTP-Imp inh 2.2, rRNA inh HTS 2, Calb FLC 5, rRNA inh HTS OD600 2 and rRNA inh HTS RFP -2.3.
`O=C1CCC(/C=C/c2ccccc2)=NN1Cc1ccccc1` gave T cruzi repl 15, FGF22 binding inactive, ALR inh -3, Beta cell apopt 8, MLL AF4-AF9 inh 1.4, RanGTP-Imp inh 5.1, rRNA inh HTS -25, Calb FLC -5, rRNA inh HTS OD600 -21 and rRNA inh HTS RFP -2.5.
`Cc1cc(NC(=O)C2CC2)ccc1NC(=O)c1cccs1` gave T cruzi repl -2, FGF22 binding inactive, ALR inh -8, Beta cell apopt -10, MLL AF4-AF9 inh 0.5, RanGTP-Imp inh 0.1, rRNA inh HTS -2, Calb FLC -2, rRNA inh HTS OD600 3 and rRNA inh HTS RFP -1.3.
`COc1ccc(C)cc1NC(=O)CCNC(=O)c1ccco1` gave T cruzi repl -4, FGF22 binding inactive, Beta cell apopt -2, MLL AF4-AF9 inh -3.4, RanGTP-Imp inh 1.5, rRNA inh HTS 4, Calb FLC -3, rRNA inh HTS OD600 5 and rRNA inh HTS RFP 3.1.
Screening CC(=O)NC(CCS(C)(=O)=O)C(=O)Nc1ccccc1 (centres undefined) returned T cruzi repl 0, FGF22 binding inactive, ALR inh -12, Beta cell apopt -6, MLL AF4-AF9 inh -2.7, RanGTP-Imp inh -4.2, rRNA inh HTS 5, Calb FLC -5, rRNA inh HTS OD600 0 and rRNA inh HTS RFP 0.3.
For Cc1nc(SCC(=O)Nc2ccccn2)n[nH]1 the results were T cruzi repl 15, FGF22 binding inactive, ALR inh 0, Beta cell apopt -8, MLL AF4-AF9 inh -4.1, RanGTP-Imp inh -4.0, rRNA inh HTS 10, Calb FLC -16, rRNA inh HTS OD600 9 and rRNA inh HTS RFP -0.3.
Screening COc1ccc(CCCc2nnc(SCC(=O)Nc3ccccc3F)o2)cc1 returned T cruzi repl -7, FGF22 binding inactive, ALR inh 3, Beta cell apopt -5, MLL AF4-AF9 inh -6.0, RanGTP-Imp inh -1.2, rRNA inh HTS -13, Calb FLC -3, rRNA inh HTS OD600 -12 and rRNA inh HTS RFP 0.3.
`Cc1nnc(SCC(=O)Nc2nsc(-c3ccc(C(C)(C)C)cc3)n2)s1` gave T cruzi repl -4, FGF22 binding inactive, Beta cell apopt -7, MLL AF4-AF9 inh 0.0, RanGTP-Imp inh 2.3, rRNA inh HTS -48, Calb FLC 30, rRNA inh HTS OD600 -75 and rRNA inh HTS RFP -5.9.
Screening Cc1c(NC(=O)c2cc(C(C)C)on2)c(=O)n(-c2ccccc2)n1C returned T cruzi repl -2, FGF22 binding inactive, ALR inh -6, Beta cell apopt -4, MLL AF4-AF9 inh 3.7, RanGTP-Imp inh -0.5, rRNA inh HTS 12, Calb FLC 3, rRNA inh HTS OD600 8 and rRNA inh HTS RFP -1.5.
`CCOC(=O)C1CCCN(C(=O)c2cc3cc4ccc(OC)cc4nc3o2)C1` (centres undefined) gave T cruzi repl 17, ALR inh -2, Beta cell apopt 1, RanGTP-Imp inh 1.7 and Calb FLC -6.
`Cc1ccc(CNc2ccc3nnc(-c4ccccc4)n3n2)cc1` gave T cruzi repl -54, FGF22 binding inactive, ALR inh -10, MLL AF4-AF9 inh 4.0, RanGTP-Imp inh 4.3, rRNA inh HTS -2, Calb FLC 5, rRNA inh HTS OD600 6 and rRNA inh HTS RFP -2.0.
O=C(O)C1CC=CCC1C(=O)Nc1cccnc1 (centres undefined) was read as T cruzi repl -7, FGF22 binding inactive, ALR inh 1, Beta cell apopt -10, MLL AF4-AF9 inh -0.5, RanGTP-Imp inh -1.4, rRNA inh HTS 19, Calb FLC -3, rRNA inh HTS OD600 20 and rRNA inh HTS RFP 1.0.
For Nc1cc(N)nc(SCC(=O)NCC(=O)Nc2ccc(F)c(F)c2F)n1 the results were FGF22 binding inactive, ALR inh 0, Beta cell apopt 1, MLL AF4-AF9 inh -2.6, rRNA inh HTS 14, rRNA inh HTS OD600 9 and rRNA inh HTS RFP 7.0.
Screening O=C1CCC(C(=O)N2CCc3ccccc3C2)CN1CCCN1CCOCC1 (centres undefined) returned T cruzi repl -8, FGF22 binding inactive, ALR inh -1, Beta cell apopt 1, MLL AF4-AF9 inh -2.9, RanGTP-Imp inh 0.4, rRNA inh HTS 18, Calb FLC -3, rRNA inh HTS OD600 12 and rRNA inh HTS RFP 1.3.
`Clc1cccc(NCc2ccccc2)n1` gave T cruzi repl -2, FGF22 binding inactive, ALR inh -3, Beta cell apopt -2, MLL AF4-AF9 inh -1.4, RanGTP-Imp inh 3.0, rRNA inh HTS -8, Calb FLC -26, rRNA inh HTS OD600 -5 and rRNA inh HTS RFP -3.1.
Screening O=[N+]([O-])c1cccc(S(=O)(=O)c2ccc(NCCO)c([N+](=O)[O-])c2)c1 returned T cruzi repl 27, FGF22 binding inactive, ALR inh -11, Beta cell apopt -1, MLL AF4-AF9 inh 2.8, RanGTP-Imp inh 2.2, rRNA inh HTS 3, Calb FLC -6, rRNA inh HTS OD600 7 and rRNA inh HTS RFP -4.3.
For COc1ccc(OC)c(CCNC(=O)CN2C(=O)CCSc3ccccc32)c1 the results were T cruzi repl -12, FGF22 binding inactive, ALR inh -1, Beta cell apopt -5, MLL AF4-AF9 inh 3.0, RanGTP-Imp inh 2.7, rRNA inh HTS 10, Calb FLC -3, rRNA inh HTS OD600 4 and rRNA inh HTS RFP 4.1.
O=C(NCc1ccncc1)C1CCN(S(=O)(=O)c2cccc(C(F)(F)F)c2)CC1 was read as T cruzi repl 7, FGF22 binding inactive, MLL AF4-AF9 inh 0.2, RanGTP-Imp inh 1.3, rRNA inh HTS -2, Calb FLC -2, rRNA inh HTS OD600 2 and rRNA inh HTS RFP 0.9.
`O=[N+]([O-])c1cc(-n2cnnn2)ccc1N1CCC(Cc2ccccc2)CC1` gave T cruzi repl 33, ALR inh -3, Beta cell apopt 18, RanGTP-Imp inh 6.1 and Calb FLC 22.
For O=C(CSc1ncn[nH]1)NCCc1ccc(Cl)cc1Cl the results were T cruzi repl -2, FGF22 binding inactive, ALR inh -11, MLL AF4-AF9 inh -3.0, RanGTP-Imp inh 1.4, rRNA inh HTS -5, Calb FLC -5, rRNA inh HTS OD600 -6 and rRNA inh HTS RFP -1.7.
S=c1[nH]nc(Cn2cnc3ccccc32)n1-c1ccccc1 was read as T cruzi repl -22, FGF22 binding inactive, ALR inh -4, Beta cell apopt -5, MLL AF4-AF9 inh 3.0, RanGTP-Imp inh -2.2, rRNA inh HTS 8, Calb FLC 9, rRNA inh HTS OD600 -2 and rRNA inh HTS RFP -2.5.
`O=C(CSc1ncccn1)NCc1ccc2c(c1)OCO2` gave T cruzi repl -6, FGF22 binding inactive, ALR inh 8, Beta cell apopt 5, MLL AF4-AF9 inh 0.0, RanGTP-Imp inh 0.3, rRNA inh HTS 4, Calb FLC -4, rRNA inh HTS OD600 -2 and rRNA inh HTS RFP -1.0.
Screening O=C(Nc1sc2c(c1C(=O)O)CCCC2)C(=O)N1CCOCC1 returned T cruzi repl -3, FGF22 binding inactive, ALR inh -9, Beta cell apopt -1, MLL AF4-AF9 inh -1.7, RanGTP-Imp inh 1.6, rRNA inh HTS -1, Calb FLC -5, rRNA inh HTS OD600 -3 and rRNA inh HTS RFP -1.2.
For O=C(NC1CC1)c1ccc2c(Cl)c3c(nc2c1)CCCC3 the results were T cruzi repl -39, FGF22 binding inactive, ALR inh 12, Beta cell apopt 0, MLL AF4-AF9 inh -1.3, RanGTP-Imp inh 17*, rRNA inh HTS -36, Calb FLC 30, rRNA inh HTS OD600 -48 and rRNA inh HTS RFP -13.
O=C(Nc1ccccc1C(=O)NCCc1ccc(O)cc1)c1ccco1 was read as T cruzi repl -6, FGF22 binding inactive, ALR inh 11, Beta cell apopt -4, MLL AF4-AF9 inh 1.9, RanGTP-Imp inh 3.8, rRNA inh HTS -13, Calb FLC 5, rRNA inh HTS OD600 -23 and rRNA inh HTS RFP 0.8.
COc1cccc2c(=O)n(CC(=O)Nc3ccc(F)cc3)ccc12 was read as T cruzi repl -5, FGF22 binding inactive, ALR inh -6, MLL AF4-AF9 inh -4.5, RanGTP-Imp inh 2.0, rRNA inh HTS 6, Calb FLC -4, rRNA inh HTS OD600 7 and rRNA inh HTS RFP -1.4.
For CC1(c2ccccc2)NC(=O)N(CC(=O)Nc2ccc3c(c2)CCC3)C1=O (centres undefined) the results were FGF22 binding inactive, ALR inh 33, Beta cell apopt -7, MLL AF4-AF9 inh -1.3, rRNA inh HTS -8, rRNA inh HTS OD600 3 and rRNA inh HTS RFP -3.0.
Screening COc1cccc(-n2c(N)c(-c3nc4ccccc4[nH]3)sc2=S)c1 returned T cruzi repl 21, FGF22 binding inactive, ALR inh 69, Beta cell apopt -9, MLL AF4-AF9 inh 11, RanGTP-Imp inh 3.5, rRNA inh HTS -19, Calb FLC inconclusive, rRNA inh HTS OD600 -15 and rRNA inh HTS RFP -3.5.
S=C(NCc1ccccc1)Nc1cccc(Cl)c1 was read as T cruzi repl 9, ALR inh -2, Beta cell apopt 1, RanGTP-Imp inh 2.1 and Calb FLC -2.
For O=C1C=C(NCc2ccc(Cl)c(Cl)c2)CC1 the results were T cruzi repl -8, ALR inh 0, Beta cell apopt -2, RanGTP-Imp inh 6.1 and Calb FLC 1.
For CSCCC(=O)N(C)CC1CCN(CCc2cccc(C(F)(F)F)c2)CC1 the results were T cruzi repl 50, FGF22 binding inactive, MLL AF4-AF9 inh -0.4, RanGTP-Imp inh -1.8 and Calb FLC 0.
`CN(CCC#N)C(=O)COC(=O)c1cc(Cl)cc(Cl)c1N` gave T cruzi repl 3, Beta cell apopt -6, MLL AF4-AF9 inh -1.2, RanGTP-Imp inh 3.0, rRNA inh HTS -1, Calb FLC 15, rRNA inh HTS OD600 -5 and rRNA inh HTS RFP -0.9.
Screening CC(=O)C1=C(O)C(=O)N(c2ccc(Br)cn2)C1c1ccccc1F (centres undefined) returned T cruzi repl -17, ALR inh 7, Beta cell apopt 3, RanGTP-Imp inh -1.9 and Calb FLC -5.

Not all compounds are listed (hit frequency here may not be typical).
